Rango release inh: prevents RanGTP from dissociating the Rango-importin beta complex; AID 540253; O95149+P62826; Potency, µM (top dose mostly 46.1 µM), inactives show top-dose activity change, negative = inhibition; Biochemical FRET Rango-importin beta, RanGTP-induced dissociation; actives 0.071% (n = 340,000); active means falling FRET ratio curve, often poorly fitted, with flat reads before Ran was added; inconclusive means other falling curves, or compound fluorescence or quenching; inactive means flat or rising ratio curve;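 further: potency means the concentration at half of the fitted maximal effect; % of control where 0% means no effect; nearly all actives have a fitted effect of over 45% in size; -100% = wells without RanGTP and RCC1; the record marks most hits as doubtful in a second field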
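Rango (0.1 uM)–importin beta (0.25 uM) complex; RanGTP-RCC1 trigger; 45 min RT; CFP/YFP FRET read.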
GLA inh pH 4.5: alpha-galactosidase A (human) inhibition, pH 4.5; purified enzyme, 4-MU-alpha-Gal fluorescence, pH 4.5; 230,000 tested, under 10 active; AID 1467; activity change, negative = inhibition, % at 105 µM; inconclusive = small, poorly fitted or top-dose-only inhibition, or a rising curve; inactive = flat fitted curve, though single readings scatter; no compound was filed as active;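 further: 0% = full activity with enzyme and -100% = basal without enzyme; dose as in the result columns while the protocol names 77 µM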
Target sequence (P06280 whole entry, looked up): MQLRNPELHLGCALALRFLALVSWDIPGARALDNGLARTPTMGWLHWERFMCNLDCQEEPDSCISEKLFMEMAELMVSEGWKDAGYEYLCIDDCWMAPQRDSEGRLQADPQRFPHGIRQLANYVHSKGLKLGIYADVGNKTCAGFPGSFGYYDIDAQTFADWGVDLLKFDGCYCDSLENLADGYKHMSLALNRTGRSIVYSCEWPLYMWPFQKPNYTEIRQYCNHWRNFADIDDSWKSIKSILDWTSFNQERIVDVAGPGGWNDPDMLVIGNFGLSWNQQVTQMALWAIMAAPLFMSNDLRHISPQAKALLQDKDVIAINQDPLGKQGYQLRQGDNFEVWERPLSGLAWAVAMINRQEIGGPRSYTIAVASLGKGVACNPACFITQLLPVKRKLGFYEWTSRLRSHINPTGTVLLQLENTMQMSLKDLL
miR-21 reporter: raises the signal of a miR-21 reporter | Potency, µM (doses to about 38.3 µM), without a hit: top-dose reporter change, positive = more light | 340,000 tested, under 10 active | HeLa miR-21 FLuc reporter, luciferase, 48 h; active = well fitted rising curve with a large enough effect; inconclusive = small, poorly fitted or top-dose-only effect; inactive = no such curve, though single readings can be large or run the other way;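 further: % of control where 0% means no effect; miR-21 action dims this reporter so a rising signal means less miR-21 action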
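Luminescence from a firefly luciferase reporter carrying a miR-21 binding site downstream, stably expressed under a CMV promoter in HeLa cells that make miR-21 endogenously, reports miRNA modulation after 48 h compound exposure up to approximately 40uM final.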
Rango complex inh: inhibitors of Rango-importin beta complex formation | Rango CFP/YFP FRET sensor + importin beta, 45 min | actives 0.031% (n = 340,000) | Q14974 | AID 540263 | Potency, µM (doses to about 92.2 µM), without a hit: at the highest dose inhibition of complex formation; active = rising FRET ratio curve, often small or poorly fitted; inconclusive = mostly compound fluorescence or quenching in the first reads; inactive = flat curves in all reads;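 further: potency means the concentration at half of the fitted maximal effect; 0% = DMSO wells and 100% = buffer wells lacking importin beta; nearly all actives have a fitted effect of over 15% in size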
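Inhibition scored from the CFP 486 nm/YFP 530 nm FRET ratio 45 min after adding 0.125 microM importin beta to 50 nM Rango biosensor preincubated 5 min with compound (room temperature, PBS with DTT, Tween-20, BSA). No-importin wells as positive control.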
Starred values were filed as active, the others as inactive; u = inconclusive; x = no result given; & = joins results of further samples. An excerpt. The share of hits here may be higher or lower than overall.

| Compound | Rango release inh | GLA inh pH 4.5 | miR-21 reporter | Rango complex inh |
| --- | --- | --- | --- | --- |
| CCN(CC(=O)NCc1ccc(F)cc1)C(=O)/C=C/c1ccc(OC)cc1 | -13% | x | -2% | -0.6% |
| C/C=C/C(=O)OCC(=O)Nc1cc([N+](=O)[O-])ccc1Cl | 7% | -2 | -4% | 4.1% |
| Cc1ccc(S(=O)(=O)N2CCN(C(=O)N3CCOCC3)CC2)cc1C | -4% | x | 1% | 1.3% |
| CS(=O)(=O)c1ccc2nc(NC(=O)c3cccc([N+](=O)[O-])c3)sc2c1 | -9% | x | -36% | -0.6% |
| O=C(O)CCCCCNS(=O)(=O)c1cccc2c1C(=O)c1ccccc1C2=O | 5% | 0 | 2% | 7.1% |
| C[C@@H]1NC(=O)c2cc([N+](=O)[O-])cc(I)c2OCC[C@@H](C(=O)NC(CC(=O)O)C(N)=O)NC(=O)[C@H](CC(N)=O)NC1=O (stereo not given in full) | -5% | -1 | -1% | 0.6% |
| C[C@H](CO)N1C[C@H](C)[C@@H](CN(C)C(=O)Nc2ccc(C(F)(F)F)cc2)Oc2c(cccc2N(C)C)C1=O | 18% | x | x | 1.1% |
| COc1ccc(S(=O)(=O)Nc2ccc(F)c(F)c2)cc1Cl | 0% | 6 | -2% | 2.1% |
| CC1CC(=O)c2cnc(NCC3CCCO3)nc2C1 (stereo not given) | -5% | -2 | -19% | 1.0% |
| O=C(NCC(c1cccs1)N1CCOCC1)c1cn(-c2ccccc2)nc1-c1ccc(F)cc1 (stereo not given) | -7% | x | x | -4.6% |
| COc1cccc(N2C(=O)C(CC(=O)Nc3ccc(F)cc3)N(C3CCCCC3)C2=O)c1 (stereo not given) | 19% | -9 | 1% | 0.3% |
| CCc1noc(C)c1C(=O)OCC(=O)Nc1ccccc1SC | 7% | x | x | -0.6% |
| CCCCCn1ccc(=O)c2c(C(F)(F)F)nccc21 | 1% | 2 | 20% | -2.4% |
| O=C(Nc1nnc(-c2ccccc2)o1)NC1CCCCC1 | 2% | 4 | -28% | -3.7% |
| Cc1ccc(CCNC(=O)C2CCN(C(=O)c3sccc3-n3cccc3)CC2)cc1 | -8% | 1 | 6% | 0.7% |
| CSc1ccccc1C(=O)NC1CC2CCC1C2 (stereo not given) | 0% | 5 | -4% | 4.5% |
| CN(C)c1ncnc2c1ncn2C1OC(CO)C(O)C1O (stereo not given) | 15% | -8 | 13% | 0.6% |
| COc1ccc2[nH]c(=O)c(CNc3ccccc3C)cc2c1 | 8% | 0 | -60% | 0.6% |
| CC(=O)c1c(C)[nH]c(C(=O)OCC(=O)Nc2ccc(Cl)cc2[N+](=O)[O-])c1C | u | 4 | u | u |
| COc1cccc(C(=O)/C=C/Nc2ccc(S(=O)(=O)Nc3ccc(C(C)=O)cc3)cc2)c1 | u | 3 | -43% | u |

Continued.
| Compound | Rango release inh | GLA inh pH 4.5 | miR-21 reporter | Rango complex inh |
| --- | --- | --- | --- | --- |
| CCn1cc(-c2cc(C(=O)O)on2)c(C)n1 | 1% | 0 | 2% | 0.9% |
| CC(=O)c1cc(C(=O)N2CCCC(CCC(=O)N(C)CCc3ccccn3)C2)cs1 (stereo not given) | 1% | 2 | 0% | -0.5% |
| CCCOc1ccc(C(=O)OCC(=O)NCCc2ccc(OCC)c(OCC)c2)cc1OC | -12% | x | 1% | -3.0% |
| CCOC(=O)COc1ccc(Cl)cc1C1NC(=O)NC(C)=C1C(C)=O (stereo not given) | 7% | -7 | -6% | 3.7% |
| CCc1cc2c(SCC(=O)NC3CCS(=O)(=O)C3)ncnc2s1 (stereo not given) | 10% | -3 | 1% | -0.7% |
| CCCCN=C1NN=C(c2cccc([N+](=O)[O-])c2)CS1 | -3% | -6 | -39% | -1.1% |
| CC(C)CNC(=O)c1cccc(NC(=O)CSc2ccccc2)c1 | -10% | 0 | -12% | -2.2% |
| COc1cc(C(=O)NC(C)C2CC3CCC2C3)ccc1OC(F)F (stereo not given) | -8% | x | x | -2.3% |
| O=C(Nc1nnc(-c2ccc(F)cc2)o1)c1ccco1 | 14% | 5 | -14% | -1.6% |
| CCOc1nc(SCCOc2ccccc2)nc(N(C)C)n1 | -17% | -9 | -9% | -4.1% |
| COCCN1CCN(c2c(C)c(C)nc3cc(-c4cccc(OC)c4)nn23)CC1 | -12% | x | x | 4.2% |
| CCOC(=O)C1=C(C)N=c2s/c(=C\c3cccn3C)c(=O)n2C1c1cccc(OC)c1OC (stereo not given) | u | 0 | -8% | u |
| O=C(Nc1ccc(N2CCOCC2)cc1)C1CC(O)CN1S(=O)(=O)c1ccc(Cl)cc1 (stereo not given) | 9% | 10 | -9% | -8.1% |
| Cc1ccc(C(NC(=O)N2CC(C)OC(C)C2)C(Cl)Cl)cc1F (stereo not given) | 7% | 0 | -4% | 0.9% |
| CC(C)c1cc(CN2CCN(C3CCCC3)C(CCO)C2)[nH]n1 (stereo not given) | 0% | 2 | 0% | 0.8% |
| Cc1ccc(C2C(C(=O)c3sc(C)nc3C)=C(O)C(=O)N2CCN(C)C)o1 (stereo not given) | -16% | 3 | 0% | u |
| Cc1ccc(S(N)(=O)=O)c(C)c1N1CCCC1=O | 9% | 4 | 1% | 4.5% |
| O=[N+]([O-])c1ccc(CSc2ccccn2)cc1 | -6% | x | -36% | 0.0% |
| CN1CC(=O)N2Cc3[nH]c4ccccc4c3C[C@H]2C1=O | -13% | x | -4% | 0.7% |
| C=C(C)Cn1cnc2c(oc3nc4c(cc32)CCCC4)c1=O | 10% | 5 | -63% | -1.1% |

Twelve consecutive records from above:
| Compound | Rango release inh | GLA inh pH 4.5 | miR-21 reporter | Rango complex inh |
| --- | --- | --- | --- | --- |
| O=C(Nc1nnc(-c2ccc(F)cc2)o1)c1ccco1 | 14% | 5 | -14% | -1.6% |
| CCOc1nc(SCCOc2ccccc2)nc(N(C)C)n1 | -17% | -9 | -9% | -4.1% |
| COCCN1CCN(c2c(C)c(C)nc3cc(-c4cccc(OC)c4)nn23)CC1 | -12% | x | x | 4.2% |
| CCOC(=O)C1=C(C)N=c2s/c(=C\c3cccn3C)c(=O)n2C1c1cccc(OC)c1OC (stereo not given) | u | 0 | -8% | u |
| O=C(Nc1ccc(N2CCOCC2)cc1)C1CC(O)CN1S(=O)(=O)c1ccc(Cl)cc1 (stereo not given) | 9% | 10 | -9% | -8.1% |
| Cc1ccc(C(NC(=O)N2CC(C)OC(C)C2)C(Cl)Cl)cc1F (stereo not given) | 7% | 0 | -4% | 0.9% |
| CC(C)c1cc(CN2CCN(C3CCCC3)C(CCO)C2)[nH]n1 (stereo not given) | 0% | 2 | 0% | 0.8% |
| Cc1ccc(C2C(C(=O)c3sc(C)nc3C)=C(O)C(=O)N2CCN(C)C)o1 (stereo not given) | -16% | 3 | 0% | u |
| Cc1ccc(S(N)(=O)=O)c(C)c1N1CCCC1=O | 9% | 4 | 1% | 4.5% |
| O=[N+]([O-])c1ccc(CSc2ccccn2)cc1 | -6% | x | -36% | 0.0% |
| CN1CC(=O)N2Cc3[nH]c4ccccc4c3C[C@H]2C1=O | -13% | x | -4% | 0.7% |
| C=C(C)Cn1cnc2c(oc3nc4c(cc32)CCCC4)c1=O | 10% | 5 | -63% | -1.1% |

(continued)
| Compound | Rango release inh | GLA inh pH 4.5 | miR-21 reporter | Rango complex inh |
| --- | --- | --- | --- | --- |
| NS(=O)(=O)c1ccc(CNC(=O)c2ccccc2SCC(=O)N2CCCC2)cc1 | 5% | x | x | 1.0% |
| NS(=O)(=O)c1ccc(CCNC(=O)Cc2cccs2)cc1 | -4% | x | -3% | 5.5% |
| COc1ccccc1NC(=O)N1CCCC1C(=O)Nc1ccc2c(c1)OCCO2 (stereo not given) | -16% | 6 | -6% | 0.3% |
| COc1ccc(S(=O)(=O)N2CCC(Cc3ccccc3)CC2)cc1NC(C)=O | 0% | x | -3% | -0.4% |
| O=C(Cc1ccccc1)Nc1nonc1NC(=O)c1ccccc1 | 1% | -1 | -11% | -1.6% |
| O=C(CC1C(=O)NCCN1Cc1ccc(-c2ccccc2)cc1)NCCc1ccccn1 (stereo not given) | 36% | 0 | -7% | -1.0% |
| CCCn1c(SCc2ccon2)nc2ccccc2c1=O | 6% | -11 | -11% | 3.0% |
| COC(=O)CCN(C(=O)c1ccc(N2CCCC2)c([N+](=O)[O-])c1)c1ccccn1 | 2% | -5 | -10% | 3.0% |
| O=C(CCNC(=O)c1ccccc1Cl)Nc1cccc(S(=O)(=O)N2CCCC2)c1 | -22% | x | x | 1.2% |
| CC(=O)c1ccc2c3c(cccc13)CC2 | -8% | 8 | -11% | 2.2% |
| Cc1ccnc(N2CCC(C(=O)NNC(=O)COc3cccc4ccccc34)CC2)n1 | 13% | -2 | -9% | -1.6% |
| COc1cc2cc3c(N)c(C(=O)NCc4ccco4)sc3nc2cc1OC | u | 6 | -51% | u |
| CNC(=S)N/N=C/c1ccccc1OCC(=O)O | -5% | -4 | 3% | 1.1% |
| O=C(CN(CCc1ccccc1)C(=O)c1csnn1)NC1CCCC1 | 0% | 5 | 2% | u |
| Brc1ccc(CNc2nc3ccccc3n2CCN2CCCCC2)cc1 | 28% | -12 | 24% | 0.4% |
| COc1ccccc1NC(=S)N1CCC(c2nc3ccccc3o2)CC1 | -9% | -1 | -3% | 1.1% |
| COCC(C)NS(=O)(=O)c1ccc(C)cc1 (stereo not given) | -13% | 4 | -1% | 2.1% |
| O=C(N/N=C/C=C\c1cccc([N+](=O)[O-])c1)c1cccnc1 | -5% | 0 | 5% | -1.1% |
| CCN(CC)CCOC(=O)c1c(C)oc2ccc(OC)cc12 | 3% | 11 | -38% | -1.6% |
| O=C(CCC(=O)Nc1ccccc1Cl)NNC(=O)C1CCCCC1 | 9% | x | x | -2.6% |

The results go on.
| Compound | Rango release inh | GLA inh pH 4.5 | miR-21 reporter | Rango complex inh |
| --- | --- | --- | --- | --- |
| O=C(N/N=C/C=C/c1ccccc1)c1cc2c(ccc3ccccc32)o1 | -4% | 0 | -5% | 1.7% |
| CC(=O)Nc1ccc(S(=O)(=O)N2CCCc3ccccc32)cc1 | -9% | 1 | 18% | 0.3% |
| Cc1cc(C)n(C(=O)c2cc3sccc3[nH]2)n1 | -14% | 3 | -24% | -0.1% |
| Cc1cccc(NC(=O)Cn2cnc(S(=O)(=O)N3CCCC3)c2)c1C | -15% | x | 0%&5% | -1.8% |
| FC(F)(F)c1ccc(-c2cccc3c2C2CC3CCN2)cc1 (stereo not given) | 1% | x | x | 7.8% |
| Cc1cc(/C=C2/NC(=O)N(c3ccccc3)C2=O)c(C)n1-c1cccnc1 | -17% | -8 | -52% | u |
| Cc1ccc(S(=O)(=O)N(C)C)cc1NC(=O)COC(=O)C1(c2ccccc2)CC1 | 6% | x | x | -3.5% |
| CC(C)(C)SCCNC(=O)CN(c1ccccc1)S(=O)(=O)c1ccccc1 | 4% | -3 | -1% | -1.4% |
| O=C(O)Cc1csc2ccccc12 | 1% | -1 | -5% | 2.2% |
| Cc1ccc(/C=N/NC(=O)c2n[nH]c3c2CCCC3)cc1 | 1% | 0 | -12% | 1.6% |
| CCOc1ccccc1NS(=O)(=O)c1cccs1 | -6% | 2 | -4% | 4.2% |
| Cc1ccc(-c2noc(COc3ccccc3C)n2)cc1 | -6% | -3 | -46% | -0.5% |
| COc1cc(C(=O)NCC(=O)N/N=C/c2ccccn2)cc(OC)c1OC | -10% | 4 | 0% | 0.9% |
| COc1ccc(-c2ccc(=O)n(Cc3cc(=O)n4ccccc4n3)n2)cc1 | -9% | 2 | -19% | -2.7% |
| Cc1c(/C=N/n2cnnc2)c2ccccc2n1CCOc1ccccc1 | -10% | -1 | -11% | 1.1% |
| COc1ccc(C(=O)NC(=S)NNC(=O)c2cnccn2)cc1OC | 0% | 7 | -1% | -4.4% |
| CCc1c(C)nc2ncnn2c1Nc1ccccc1C | 18% | x | -12% | 0.6% |
| Cc1cccc(-n2c(C)nc3cc(C(=O)NCC4CCCO4)ccc32)c1 (stereo not given) | 0% | x | -7% | u |
| CC1(C)CCC/C(=C\c2ccccc2)C1=O | -15% | x | x | -3.7% |
| COc1ccc(CCn2c(C(C)C)nc3oc4ccccc4c(=O)c3c2=O)cc1 | 24% | -3 | 0% | 1.9% |
| CC(C)NC(=S)Nc1ccc2nc3n(c(=O)c2c1)CCCCC3 | 2% | 3 | -22% | -2.5% |

Screens as filed in PubChem BioAssay.
